ugtP null kill – growth inhibition of ugtP-null S. aureus, primary screen, RN4220 ugtP deletion, OD600. 16 h; some inactives read as strong as hits. growth inhibition, % (concentration not given with the values). 0.54% of 330,000 active;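 active = z-score under -3 and OD600 up to 0.15 on both plates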;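 note: plate controls were untreated wells for no effect and antibiotic for full effect; wells of about 80 µL received 100 nL stock; the first replicate is given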
BJeLR lethal – MLPCN primary cell-based screen for lethality selective to Ras in HRASV12 cells | BJeLR (HRASV12) viability, CellTiter-Glo ATP luminescence, 48 h; reference of the scale not given here | inhibition, % (no concentration beside the values) | 0.17% of 300,000 active;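 active = replicate mean above 50%; inconclusive = above 50% but judged a plate artefact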;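 note: 50 nL library stock added to about 25 µL; numbers are from one replicate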
PrP UTR inh – inhibition of PrP 5' UTR reporter expression. 0.35% of 340,000 active. inhibition, % (no concentration beside the values). cell-based PrP 5' UTR mRNA reporter, plate reader;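 active = every replicate at 50% or more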;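 note: 0 = median of the neutral control wells; tested in H4 reporter cells; numbers are from one replicate; inactives centre near -14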
Mtb hypoxia rep – PubChem AID 1159583. M. tuberculosis hypoxia-regulated fluorescent reporter, fluorescence. fluorescence inhibition, % (test concentration not listed). 0.1% of 300,000 active;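 active = 35 to 45% if threefold the growth effect, above 45% if 1.5-fold the growth effect; inactive = the rest, general growth blockers included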;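 note: wells of about 50 µL received 100 nL stock; 0% = vehicle wells and 100% = reference inhibitor wells; whole bacteria with a GFP reporter of the hypoxia response; strong numbers were not always called active; many hits fall short of the cut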
RN4220 kill – growth inhibition of S. aureus RN4220, primary screen, OD600; 16 h; inhibition, % (test concentration not listed); 0.33% of 330,000 active;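 active = z-score of -3 or lower and OD600 up to 0.18 on both plates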;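 note: plate controls were untreated cells for no effect and reference antibiotic for full effect; stock transfer was 100 nL into about 80 µL; one replicate is shown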
Autofluor counter – flagged as autofluorescent in microsphere protease counterscreen | 3.1% of 360,000 active | fluorescence intensity (test concentration not listed) | compound autofluorescence counterscreen, microsphere flow cytometry; active compounds read high | AID 624483;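 active = at least 3 SD above the mean of all compounds, about 16000 in these data; inconclusive = too few beads counted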;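 note: 100 nL of 1 mM stock went into each well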
Mtb hypoxia rep growth – second read-out of Mtb hypoxia rep, no call of its own (marks repeat the call); growth inhibition, %; measured here: M. tuberculosis growth (absorbance);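 0% = vehicle and 100% = reference antibiotic; read after six days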
An asterisk follows results filed as active; u = inconclusive; x = no result given.

SMILES	ugtP null kill	BJeLR lethal	PrP UTR inh	Mtb hypoxia rep	Mtb hypoxia rep growth	RN4220 kill	Autofluor counter
Cc1nc(N2CCN(S(=O)(=O)c3cccc4nonc34)CC2)c2c3c(sc2n1)CCCC3	35	0	-6	1	3	5.7	7063
O=C1C(c2ccc(F)cc2)N(Cc2ccc3c(c2)OCO3)C(=O)CN1C1CCCC1 (stereo not drawn)	0	-2	-17	-3	5	-0.1	25677*
O=C(NC1=NCCS1)c1ccc(OCC2CCCO2)cc1 (stereo not drawn)	8	4	-48	x	x	6.9	4303
Cc1ccc(S(=O)(=O)N2CCN(C(=O)COC(=O)Cc3c(F)cccc3Cl)CC2)c(C)c1	-4	x	-3	6	1	1.9	2988
COc1cc(OC)nc(NC2OC(=O)c3ccccc32)n1 (stereo not drawn)	-4	-2	-15	-3	-4	17	16622*
COc1cc2ccccc2cc1C(=O)Nc1ccc(Br)cn1	14	1	-70	3	-3	1.0	3231
COc1cccc(OC)c1C(=O)Nc1ccc(S(=O)(=O)N2CCCCC2)cc1	-2	3	1	-3	-3	-4.8	4353
COc1ccc2[nH]c(=O)cc(C(=O)O)c2c1	2	-18	1	5	10	0.9	3370
O=C(c1cccc(C(F)(F)F)c1)N1CCCC1	0	-2	-10	x	x	-1.3	16789*
COCC(C)n1c(C)cc(C(=O)COC(=O)c2ccc3c(c2)NC(=O)CS3)c1C (stereo not drawn)	2	5	2	0	9	3.5	2108
Cc1ccc(NC(=O)c2cc(=O)c3ccccc3o2)cc1S(=O)(=O)N1CCOCC1	9	-5	-2	7	8	2.4	3777
O=C(Nc1cccc(S(=O)(=O)Nc2ccc(SC(F)F)cc2)c1)C1CCC1	5	x	-17	4	1	-3.1	3736
CC(C)(C)c1ccc(C(=O)c2c[nH]c(C(=O)O)c2)cc1	9	-4	-32	1	8	4.9	3527
CC(C)[C@H](NC(=O)c1ccccc1)C(=O)OCC(=O)N1CC2(C)CC1CC(C)(C)C2 (stereo partly drawn)	0	1	2	8	1	3.2	2432
O=C(NN=Cc1cccnc1)c1ccccc1Br	2	x	x	5	17	1.2	x
COc1ccc(N2CCN(c3ccc(NC(=O)c4ccc5c(c4)OCO5)cc3C#N)CC2)cc1	2	-7	13	x	x	0.9	4742
CCn1c(CN2C(=O)CSc3ccccc32)n[nH]c1=S	5	-8	-22	3	-1	-1.8	6471
CN1CCc2c(sc3c2C(=O)NC(c2cn(Cc4ccccc4)c4ccccc24)N3)C1 (stereo not drawn)	-7	-5	-31	17	9	0.1	20205*
CCOC(=O)C1CCN(C(=O)c2ccc3c(c2)NC(=O)/C(=C\c2cccc(C)c2)S3)CC1	-15	-1	-31	4	-4	-3.1	4375
COc1ccc(OC)c(CCNC(=O)c2ccccc2NC(=O)C2=C(C)OCCS2)c1	-4	0	5	0	9	-4.9	5700

Some values from above.
Under ugtP null kill, `COc1ccc(OC)c(CCNC(=O)c2ccccc2NC(=O)C2=C(C)OCCS2)c1` has the entry -4
Under ugtP null kill, `O=C(Nc1cccc(S(=O)(=O)Nc2ccc(SC(F)F)cc2)c1)C1CCC1` has the entry 5

Carrying on:
SMILES	ugtP null kill	BJeLR lethal	PrP UTR inh	Mtb hypoxia rep	Mtb hypoxia rep growth	RN4220 kill	Autofluor counter
Cc1c(NC(=S)NC(=O)c2ccccc2)c(=O)n(-c2ccccc2)n1C	4	3	-32	-4	3	2.2	u
CCN1CCN(CCCNC(=O)c2ccc(/C=C3/Oc4ccccc4N(Cc4cccc(C)c4)C3=O)cc2)CC1	-7	-7	-24	-7	-4	-8.4	5509
CC/C(O)=C1\C(=O)CCCC1=NCCc1nc2ccccc2[nH]1	5	5	0	7	7	9.7	4284
Cc1cc(C(=O)N2CCCC(Nc3ccccc3)C2)c2ccc(F)cc2n1 (stereo not drawn)	5	5	-5	4	4	1.4	6667
CC(NC(=O)COc1ccccc1)C(=O)N1CCN(c2ccc(F)cc2)CC1 (stereo not drawn)	9	x	-7	-3	1	6.2	5108
CCSc1nnc(NC(=O)Cc2ccccc2OC)s1	9	3	-6	x	x	-1.6	4793
O=C(Cc1ccccc1)NNS(=O)(=O)c1ccc(F)cc1	6	-1	-16	15	7	1.0	3490
O=C(NCc1ccc(F)cc1Cl)C1CCN(S(=O)(=O)N2CCCCC2)CC1	3	8	-17	-14	-7	3.0	5378
COc1ccc(N(CC(=O)NCc2ccc3c(c2)OCO3)S(=O)(=O)c2ccc(O)c(C(=O)O)c2)cc1	28	x	-1	9	0	-8.5	u
Cc1cc[n+](C(C)C(=O)c2ccc(-c3ccccc3)cc2)cc1 (stereo not drawn)	11	x	-43	-6	3	-2.1	6856
COc1ccc(/C=C/c2c([N+](=O)[O-])c(=O)n(C)c(=O)n2C)cc1	3	-12	-11	-3	6	0.5	4428
CCOc1ccc(NC(=O)CSc2nc(N)c(-c3ccccc3)c(=O)[nH]2)cc1	0	0	-31	3	0	7.8	5184
O=C(NC1CCCCC1)C(c1ccc(F)cc1)N(Cc1ccccc1)C(=O)CN1C(=O)c2ccccc2S1(=O)=O (stereo not drawn)	22	-2	-9	15	1	4.9	2697
CCc1cccc(NS(=O)(=O)c2ccc3c(c2)CCC(=O)N3)c1	10	10	-25	5	0	3.5	3950
COc1ccc(NC(=O)CN(C)C(=O)c2ccc(NS(=O)(=O)c3cccc([N+](=O)[O-])c3)cc2)cc1	5	-17	-26	8	0	2.5	4267
COc1ccc(NC(=O)CN(C)C(=O)c2cccc(S(=O)(=O)N3CCN(c4ccccc4)CC3)c2)cc1	1	-2	-14	-1	-9	-1.4	x
O=C(CSc1nnc(-c2cccnc2)n1-c1ccccc1)Nc1ccccc1	-7	-3	-20	-4	10	0.4	9420
Cc1onc(-c2ccccc2Cl)c1C(=O)N(C)C1CCCCC1	14	24	-9	4	1	14	5864
Cc1ccccc1-c1nnc(SCCC(=O)N2CCOCC2)o1	5	6	-31	22	6	3.9	4101
CCCc1nc2scc(-c3ccccc3)c2c(=O)n1N	6	x	9	9	13	2.3	23965*
COc1ccc(-c2nc(CN(CC3CCC(=O)N3)C(C)C)c(C)o2)c(C)c1C (stereo not drawn)	14	18	-16	14	5	6.6	3958
COc1cc(/C=C/C(C)=O)cc(OC)c1OC	1	-2	-14	13	12	-2.3	3913
COc1cccc(NC(=O)CN(C)C(C)C(=O)NC(C)c2ccc(Cl)cc2Cl)c1 (stereo not drawn)	2	x	0	6	3	3.0	5586
CCc1nnc(NC(=O)CSc2ncnc3scc(-c4ccc(C)cc4)c23)s1	1	3	-25	1	10	4.3	5072
CCc1cc2ccc(C)cc2nc1SCC(=O)NNC(=O)c1ccco1	4	-5	-17	-2	-1	4.8	2282
Cc1nnc(C)n1N=Cc1ccc(-c2ccccc2Cl)o1	6	x	x	2	8	1.7	x
CC(C)Sc1nc2c([nH]1)c(=N)ncn2Cc1ccccc1	-1	7	2	-1	9	3.1	3314
Cc1onc(C(=O)NN)c1-c1csc(COc2ccc(Cl)cc2)n1	4	-10	-17	0	7	5.9	x
c1ccc2sc(NN=C3CCCCCC3)nc2c1	8	6	17	-6	-7	-9.1	4175
Cc1ccccc1NNC(=O)C(=O)NNc1ccccc1C	14	5	-23	8	0	2.8	5519
Cc1cccc(OCC(=O)Nc2ccccc2-c2ccccc2)c1	7	0	-20	2	-4	1.1	7928
O=C(COC(=O)CCCSc1nc2ccccc2[nH]1)Nc1cccc(F)c1	1	-7	-6	14	9	-1.7	6727
O=C1NN=C(c2ccccc2)CC1c1c[nH]c2ccccc12 (stereo not drawn)	1	7	-11	13	-4	1.5	4322
Cc1ccsc1C=NNC(=O)c1nnn(-c2nonc2N)c1CSc1ccccc1	-4	x	x	-8	-4	2.4	x
O=C(Nc1ccc(S(=O)(=O)Nc2ccnn2-c2ccccc2)cc1)C(F)(F)F	16	3	-3	x	x	3.5	3628
Cc1cc(C)cc(NC(=S)N2CCC(NC(=O)C3CC3)CC2)c1	6	1	-16	3	-7	4.6	2957
COc1ccccc1NC(=O)Cn1nc(-c2ccc(Cl)cc2)c2ccccc2c1=O	0	0	-1	x	x	-0.9	3375
Cc1nc(SCCOc2ccccc2F)[nH]c(=O)c1Cc1ccccc1	6	5	-34	6	0	3.0	3941
CC1CCCCC1NC(=O)CCC(=O)N1CCOc2ccc(Cl)cc21 (stereo not drawn)	6	-1	-12	15	8	4.3	5908
COc1ccc(C(=O)c2c3ccc(OC)cc3[n+]([O-])n2CCCC(N)=O)cc1	4	-4	-27	2	5	8.9	4530

Profiles, looked up by structure:
Listed for Cc1cccc(OCC(=O)Nc2ccccc2-c2ccccc2)c1 = ugtP null kill: 7; BJeLR lethal: 0; PrP UTR inh: -20; Mtb hypoxia rep: 2; Mtb hypoxia rep growth: -4; RN4220 kill: 1.1; Autofluor counter: 7928
Listed for CCc1nnc(NC(=O)CSc2ncnc3scc(-c4ccc(C)cc4)c23)s1 = ugtP null kill: 1; BJeLR lethal: 3; PrP UTR inh: -25; Mtb hypoxia rep: 1; Mtb hypoxia rep growth: 10; RN4220 kill: 4.3; Autofluor counter: 5072

Continued.
SMILES	ugtP null kill	BJeLR lethal	PrP UTR inh	Mtb hypoxia rep	Mtb hypoxia rep growth	RN4220 kill	Autofluor counter
Cc1cccc(NC(=O)CCN2CCCCC2)c1	9	-7	-1	8	11	0.2	4351
CC(Cc1ccccc1Sc1ccccc1)N(C)C (stereo not drawn)	12	-6	-26	15	15	4.6	6869
N#C/C(=C\c1ccc(Sc2ccccc2)o1)c1nc2ccccc2[nH]1	-12	9	-49	9	-4	2.1	2094
O=C(CN1CCN(S(=O)(=O)c2ccccc2)CC1)Nc1ccccc1C(=O)c1ccccc1	5	1	-2	-2	-1	7.4	11616
Cc1ccc(N2C(=O)c3cccc4cccc(c34)C2=O)cc1	3	-3	-29	-5	14	6.9	3657
O=C(CN(Cc1ccc(Cl)cc1)C(=O)CNS(=O)(=O)c1ccccc1)NCC1CCCO1 (stereo not drawn)	1	-6	-15	-12	0	1.7	5928
CCN(c1ccccc1)S(=O)(=O)c1ccc(C(=O)Nc2ccccn2)cc1	-4	11	-11	3	10	5.8	u
COc1ccc(C(=O)NCC(=O)NCC(=O)OCC(=O)c2ccc(C)cc2)cc1	-4	-5	1	1	7	0.7	5464
Cc1noc(C)c1CSc1nc2[nH]ncc2c(=O)n1-c1ccccc1	3	26	38	x	x	-1.3	2420
COc1ccc(NC(=O)C2CCCN(C(=O)Nc3ccc(F)cc3)C2)cc1OC (stereo not drawn)	8	0	-4	3	0	3.3	3118
COc1ccc2c(CC(=O)NNC(=O)c3ccc(O)cc3)coc2c1	4	x	-27	0	8	2.7	4236
CCNC(=O)c1ccccc1CCc1ccccc1	x	-20	-12	x	x	x	4144
CN(CC(O)COCc1ccccc1F)C1CCCCC1 (stereo not drawn)	-6	-6	-6	-3	-3	-3.3	4295
CC(CCc1ccccc1)NC(=O)C(=O)N1CCOCC1 (stereo not drawn)	2	-5	-11	1	-1	6.1	4219
Cn1nc(C(=O)N2CCc3ccccc32)c2ccccc2c1=O	6	-13	6	1	-7	8.2	2487
CN(CC(O)COc1ccc(S(=O)(=O)N2CCOCC2)cc1Cl)C1CCCCC1 (stereo not drawn)	-4	-2	-9	8	1	3.4	4508
C=CCNc1nc(N2CCOCC2)nc(N2CCOCC2)n1	-3	-12	0	0	1	1.7	11165
COc1cccc(C(=O)Nc2cc(-c3cn4cccnc4n3)ccc2C)c1	0	6	-15	8	3	1.5	4459
O=S(=O)(/N=C(/Nc1cccc2ccccc12)c1ccccc1)c1cccs1	x	1	-9	x	x	x	2970
Cc1cc(N2CCN(C)CC2)nc2ccc(NC(=S)NCCCN3CCc4ccccc4C3)cc12	0	23	-39	-3	6	2.9	4302
O=C(NCCN1CCOCC1)c1ccc2c(c1)N(Cc1ccccc1F)C(=O)c1ccccc1S2	1	4	-12	2	-4	0.2	5913
CCC1=NN2C(=N)/C(=C\c3cccn3-c3c(C)cccc3C)C(=O)N=C2S1	-13	4	-6	8	2	-3.7	2471
O=C(CN1CCN(Cc2ccccc2)CC1)NCCc1ccccc1	1	-12	-12	-1	6	-4.0	3637

Assay outcomes: PubChem BioAssay, several laboratories

Not a hit list; overall some 4% were active at least once.
